Cruzain inh noDet: qHTS Assay for Promiscuous and Specific Inhibitors of Cruzain (without detergent); purified cruzain, Z-FR-AMC fluorescence, no detergent; 200,000 tested, 2.3% active; Potency, µM, for the others: max response, negative = inhibition, usual class: inhibitors; Cruzipain (Trypanosoma cruzi), P25779;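 also: plate controls were enzyme without inhibitor for no effect and buffer without enzyme for full effect; nearly all actives have a fitted effect of over 40% in size; top concentration of the series not given in the record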
Target sequence (P25779 123-467 limits assumed): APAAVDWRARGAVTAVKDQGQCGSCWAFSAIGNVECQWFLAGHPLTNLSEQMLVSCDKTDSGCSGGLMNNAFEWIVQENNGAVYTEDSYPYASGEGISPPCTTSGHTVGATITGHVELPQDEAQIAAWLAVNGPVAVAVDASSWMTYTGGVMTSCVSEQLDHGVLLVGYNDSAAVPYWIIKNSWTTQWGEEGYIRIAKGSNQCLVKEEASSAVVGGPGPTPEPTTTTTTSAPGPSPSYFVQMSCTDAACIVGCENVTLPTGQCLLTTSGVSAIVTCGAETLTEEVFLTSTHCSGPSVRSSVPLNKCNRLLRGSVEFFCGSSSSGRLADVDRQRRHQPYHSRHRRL
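Purified cruzain at 1.5 nM, pre-incubated 15 min with compound at room temperature in 100 mM sodium acetate pH 5.5, 5 mM DTT, 0.00005% Triton X-100. Reaction started with 2 uM Z-FR-AMC; AMC fluorescence increase over 60 s gives rate.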
MARV entry inh: qHTS for inhibitors of binding or entry into cells for Marburg Virus; AID 540276, 2011; Potency, µM (doses to about 37.8 µM), inactives show top-dose activity change, negative = inhibition, hits mostly inhibitors; Marburg virus pseudotyped entry inhibition, cell reporter; control for the full effect not named in the record; about a third of the inactives were read at about 46 µM; 300,000 tested, 1.8% active; active = well fitted inhibition curve with a large enough effect; inconclusive = small, poorly fitted or top-dose-only effect, or effect the other way; inactive = flat fitted curve, though single readings scatter; tested in HEK293 cells; about a fifth of its hits are not listed in these tables; also: % is scaled to controls: 0 for no effect and ±100 for the full control effect; luciferase read-out
LASV entry inh: qHTS for Inhibitors of binding or entry into cells for Lassa Virus | Lassa virus pseudotype entry inhibition, cell reporter; control for the full effect not named in the record | Potency, µM (doses to about 37.9 µM), without a hit: top-dose activity change, negative = inhibition, most hits filed as inhibitors | 300,000 tested, 1.2% active | AID 540256, 2011; active means well fitted inhibition curve with a large enough effect; inconclusive means small, poorly fitted or top-dose-only effect, or effect the other way; inactive means flat fitted curve, though single readings scatter; tested in HEK293 cells; also: % is scaled to controls: 0 for no effect and ±100 for the full control effect; nearly all actives have a fitted effect of over 50% in size; luciferase read-out
Cruzain Triton: qHTS Assay for Promiscuous and Specific Inhibitors of Cruzain (with detergent); Cruzipain (Trypanosoma cruzi), P25779; purified cruzain, Z-FR-AMC fluorescence, 0.01% Triton; Potency, µM, for inactives: max response, negative = inhibition, actives largely listed as inhibitors; 200,000 tested, 0.43% active; AID 1478, 2009;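 also: plate controls were neutral wells for no effect and buffer without enzyme for full effect; nearly all actives have a fitted effect of over 40% in size; top concentration of the series not given in the record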
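In this qHTS format, compounds are incubated with 1.5 nM cruzain for 15 min at room temperature before 2 uM Z-FR-AMC is added. Release of AMC is followed at 360/450 nm, and progress is taken as the 60 s fluorescence difference.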
2A StopGo: High Throughput Screening for Foot and Mouth Disease Virus Antivirals; human cells with a luciferase reporter of 2A StopGo recoding; control for the full effect not named in the record; Potency, µM (titrated, usually from 57.9 µM), for inactives: at the top dose signal change, negative = less light; 410,000 tested, 1.2% active; active = well fitted falling curve with a large enough effect; inconclusive = small, poorly fitted or top-dose-only effect; inactive = no such curve, though single readings can be large or run the other way; tested in HEK293T cells; also: % is scaled to controls: 0 for no effect and ±100 for the full control effect; nearly all actives have a fitted effect of over 45% in size; luciferase light after 4 h
RE007 growth inh: qHTS Assay for Inhibitors of the HIV-1 protein Vpr. S. pombe RE007 Vpr strain, BacTiter-Glo ATP luminescence, 24 h; control for the full effect not named in the record. AID 651644, 2012. Potency, µM (doses to about 92.2 µM), without a hit: at the highest dose activity change, negative = less growth. 360,000 tested, 0.21% active; active = well fitted falling curve with a large enough effect; inconclusive = small, poorly fitted or top-dose-only effect; inactive = no such curve, though single readings can be large or run the other way;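 also: % is scaled to controls: 0 for no effect and ±100 for the full control effect; nearly all actives have a fitted effect of over 50% in size; the assay follows cell death caused by Vpr and the record does not say whether a fall means rescue or toxicity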
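Fission yeast RE007 carrying one integrated HIV-1 vpr copy, seeded at OD 0.01 in PMG+AL medium with 23 nL pinned compound. Grown 24 h at 30 degrees; viability read by BacTiter-Glo luminescence after 5 min.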
SARS PLpro yeast: qHTS of Yeast-based Assay for SARS-CoV PLP | 330,000 tested, 0.19% active | S. cerevisiae expressing SARS-CoV PLpro, growth rescue; control for the full effect not named in the record | Potency, µM (titrated, usually from 32.9 µM), for inactives: at the top dose activity, positive = growth rescue; active means well fitted rising curve with a large enough effect; inconclusive means small, poorly fitted or top-dose-only effect; inactive means no such curve, though single readings can be large or run the other way; also: 0% is about no effect; nearly all actives have a fitted effect of over 55% in size; growth read by luminescence after 48 h
NS1 inh: qHTS Assay for Inhibitors of Influenza NS1 Protein Function; S. cerevisiae slowed by influenza A NS1, growth recovery by OD600; AID 2326, 2010; Potency, µM (highest dose often 46.1 µM), for the others: top-dose activity, positive = more growth; 270,000 tested, 0.4% active; active means well fitted rising curve with a large enough effect; inconclusive means small, poorly fitted or top-dose-only effect; inactive means no such curve, though single readings can be large or run the other way; also: nearly all actives have a fitted effect of over 50% in size
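S. cerevisiae expressing influenza A NS1, grown in glucose, washed, then diluted 1:100 into pH 6.0 -URA galactose medium with 23 nl compound. Growth recovery read as OD600; NS1-free strain serves as control.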
Active calls of the source: *; ? = inconclusive; nt = no result given; & = joins results of further samples; [ ] = another dose, or the depositor's remark. Unless noted, calls follow the shape of the dose curve; as a rule, active = well fitted curve in the direction sought with a large enough effect; inconclusive = small, poorly fitted or top-dose-only effect, or another doubt; inactive = no such curve, though single readings can be large; an effect the other way counts as inactive or inconclusive. Potency is read from the fitted curve at half-maximal effect.

Structure	Cruzain inh noDet	MARV entry inh	LASV entry inh	Cruzain Triton	2A StopGo	RE007 growth inh	SARS PLpro yeast	NS1 inh
C=CCNC(=O)c1ccc(C)cc1Cl	-4%	6%	-2%	1.6%	16%	-12%	1%	5%
COC(=O)c1ccc(COC(=O)c2ccccn2)cc1	0%	-13%	11%	1.9%	47%[activator]	-16%	-7%	-6%
CCOc1cc(/C=N\NC(=O)CC(=O)NCCc2ccccc2)ccc1O	nt	?	4%	nt	4%	24%	0%	-3%
CCC(=O)N1CCc2cc(S(=O)(=O)CCC(=O)Nc3ccc(C(C)=O)cc3)ccc21	nt	-2%[46.1 µM]	-4%[46.1 µM]	nt	-14%	1%	-5%	-9%
O=C(O)/C(=C\c1cccc(OCc2ccccc2)c1)c1ccc(F)cc1	nt	-2%[46.1 µM]	?	nt	-7%	-13%	-3%	-4%
O=C(CCSc1ccccc1Cl)Nc1cccc([N+](=O)[O-])c1	-1%	?	?	-10%	-4%	26%	-12%	-38%
N#Cc1ccc(-c2ccc(OCC(=O)Nc3cccnc3)cc2)cc1	nt	?	-14%	nt	?	3%	-6%	-10%
Fc1ccc(NC(=S)N2CCc3ccccc3C2)c(F)c1	nt	-1%[46.1 µM]	-9%[46.1 µM]	nt	37%[activator]	-10%	-3%	-7%
CCc1ccc2oc(-c3cccc(NC(=O)c4ccc(-c5cccc([N+](=O)[O-])c5)o4)c3)nc2c1	-5%	?	17%[46.1 µM]	-3.1%	33%[activator]	nt	nt	nt
Cc1ccc(N2C(=O)N(Cc3cccc(Cl)c3)c3ccccc3S2(=O)=O)cc1	?	nt	-27%[46.1 µM]	-1.6%	-17%	nt	nt	nt
O=C(NCc1ccccc1)c1ccc(NC(=O)C2CCCO2)cc1 (centres undefined)	nt	2%[46.1 µM]	-3%[46.1 µM]	nt	30%[activator]	3%	-5%	3%
O=C(O)CSc1ncccn1	nt	15%[46.1 µM]	2%[46.1 µM]	nt	-11%	-7%	-1%	nt
CCOc1ccc(S(=O)(=O)NCc2cccnc2)c2ccccc12	nt	0%[46.1 µM]	14%[46.1 µM]	nt	43%[activator]	5%	2%	-18%
COc1ccc(S(=O)(=O)Nc2cccnc2)cc1	nt	nt	nt	nt	-6%	2%	2%	2%
COc1ccc(S(=O)(=O)N2CCN(C(=O)c3ccccn3)CC2)cc1	nt	-11%[46.1 µM]	20%	nt	-18%	-5%	-1%	nt
COc1ccc(CCNC(=O)c2ccc3c(c2)CCN3S(=O)(=O)c2ccc(C)cc2)cc1	-6%	-3%[46.1 µM]	?	0.7%	-27%	nt	nt	nt
Cc1ccc(-n2c3nc(=O)[nH]c(=O)c-3cc3c(C)nn(-c4ccccc4)c32)cc1Cl	8%	-3%[46.1 µM]	?	-2.3%	-19%	nt	nt	nt
CS(=O)(=O)c1ccc2nc(NC(=O)C3C4C=CC(C4)C3C(=O)O)sc2c1 (centres undefined)	4%	20%&20%	15%	4.1%	15%	19%	3%	-28%
CC(C)(C)C(=O)N/C(N)=N/c1nc2ccccc2o1	nt	?	?	nt	-30%	?	-2%	-2%
COc1ccc(OC)c(CCNC(=O)c2ccc3c(c2)N(Cc2ccccc2)CCS3)c1	-25%	-6%&-6%[46.1 µM]	-3%[46.1 µM]	-6.8%	0%&-10%	-7%	2%	31%

Next section
Structure	Cruzain inh noDet	MARV entry inh	LASV entry inh	Cruzain Triton	2A StopGo	RE007 growth inh	SARS PLpro yeast	NS1 inh
O=c1oc2ccc(Br)cc2cc1-c1csc(-c2ccc(Cl)cc2)n1	-6%	nt	?	2.1%	7%	nt	nt	nt
CCNc1nc(SC)nc(N(C#N)CC(=O)OC)n1	13µM*	?	2%	14µM*	nt	8%	1%	-2%
Cc1cccc(N2CCN(S(=O)(=O)c3cc(C(=O)Nc4ccccc4Cl)ccc3F)CC2)c1C	?	nt	?	-1.0%	-25%	nt	nt	nt
COc1ccc(C(=O)N2CC(=O)Nc3ccc(C)cc3C2c2ccc(F)cc2)c(OC)c1 (centres undefined)	-4%	-3%[46.1 µM]	-19%[46.1 µM]	-4.3%	-14%	nt	nt	nt
COc1ccc(N2C(=O)C(CC(=O)O)S/C2=C\C(C)=O)cc1 (centres undefined)	1%	18%	-3%	-2.6%	-11%	-7%	0%	-2%
CCOc1ccc(NC(=O)c2ccc(F)c(S(=O)(=O)N(Cc3ccc(C(=O)OC)cc3)Cc3ccc(OC)c(OC)c3)c2)cc1	9%	nt	29%[46.1 µM]	1.9%	-10%	nt	nt	nt
O=c1c2oc3ccccc3c2n(Cc2cccc(F)c2)c(=O)n1Cc1ccc2c(c1)OCO2	-4%	nt	-1%[46.1 µM]	-1.4%	-19%	nt	nt	nt
COc1ccc(C(CC(=O)O)NC(=O)c2cc3ccccc3oc2=O)cc1OC (centres undefined)	-2%	-6%[46.1 µM]	2%[46.1 µM]	-3.7%	-17%	nt	nt	nt
COc1ccc(Cc2nnc(SCC(=O)Nc3nc(C)cs3)o2)cc1	-5%	3%	-13%	1.1%	1%	4%	8%	-5%
COc1cccc(N(CC(=O)N2CCOCC2)S(C)(=O)=O)c1	nt	nt	nt	nt	-3%	5%	5%	13%
O=c1[nH][nH]c2nc(C(F)(F)F)cc(C(F)(F)F)c12	-3%	30%	11%	-0.1%	7%	-4%	-2%	0%
O=C(COC(=O)CNC(=O)c1ccco1)NCc1ccc(F)cc1	nt	0%[46.1 µM]	-22%	nt	-23%	5%	-1%	5%
CC(C)CCNC(=O)c1onc(CSc2ccc(Cl)cc2)c1C(=O)NCCC(C)C	nt	nt	nt	nt	-14%	0%	-2%	-9%
COC(=O)C1CCN(C(=O)COC(=O)CCc2nc3ccccc3c(=O)[nH]2)CC1	-8%	22%	15%	-2.7%	-9%	5%	3%	17%
CSc1ccc(CNC(=O)Cn2nc(C)c3c(C)n(-c4ccc(C)cc4)nc3c2=O)cc1	nt	nt	nt	nt	0%	-10%	-2%	-9%
COc1cc(C)ccc1OCCOCCOc1ccccc1[N+](=O)[O-]	0%	5%	-11%	-4.1%	-16%	-22%	?	-14%
CCOC(=O)c1ccc(NC(=O)CC2C(=O)N(c3cccc(OC)c3)C(=O)N2Cc2cccnc2)cc1 (centres undefined)	?	nt	?	-3.2%	-12%	nt	nt	nt
COc1ccc(C2(C)NC(=O)N(CC(=O)N(c3ccccc3)C3CCS(=O)(=O)C3)C2=O)cc1 (centres undefined)	nt	3%[46.1 µM]	-5%[46.1 µM]	nt	1%	-18%	-6%	nt
CCOC(Cn1cc([N+](=O)[O-])c(=O)[nH]c1=O)OCC	nt	12%[46.1 µM]	27%[46.1 µM]	nt	-1%	9%	nt	nt
CCOc1ccc(OCCCCNCCN)cc1	-4%	-4%	nt	4.3%	nt	nt	2%	-3%

Following part
Structure	Cruzain inh noDet	MARV entry inh	LASV entry inh	Cruzain Triton	2A StopGo	RE007 growth inh	SARS PLpro yeast	NS1 inh
CCOC(=O)c1cc(CC)sc1NC(=O)Cc1ccsc1	-4%	-21%	-8%	-5.9%	-23%	0%	-1%	-52%
CC(C)[C@H](NC(=O)N1CC(=O)Nc2ccccc21)C(=O)N1CCC[C@@H]1C(=O)O	nt	nt	nt	nt	-9%	11%	2%	4%
CC(C)(C)OC(=O)C(Cc1ccc(OC(C)(C)C)cc1)NC(=O)CNC(=O)OCc1ccccc1 (centres undefined)	?	?	?	-10%	0%	-24%	12%	-20%
Cc1c(C(=O)Nc2ccccc2Br)oc2ccc(S(=O)(=O)N3CCCCCC3)cc12	9%	nt	22%[46.1 µM]	2.0%	7%	nt	nt	nt
COc1cc(/C=C(\NC(=O)c2ccccc2)C(=O)Nc2nccs2)ccc1OC(C)=O	nt	nt	nt	nt	-24%	6%	2%	3%
CCOC(=O)CCNC(=O)N1CCCC(CNS(=O)(=O)c2cccs2)C1 (centres undefined)	nt	13%	2%	nt	-14%	5%	1%	-1%
COc1ccc(CN(Cc2cc3ccc(C)cc3[nH]c2=O)Cc2nnnn2C2CCCC2)cc1	14%	?	?	-14%	nt	1%	-3%	-3%
O=C(Nc1ccccc1-c1nnn(CC(=O)N2CCCc3ccccc32)n1)c1ccc(Cl)cc1	32µM*	-4%	5%	-6.4%	-22%	-2%	12%	3%
Cc1c(Cl)cccc1NS(=O)(=O)c1c(C(=O)N2CCOCC2)c(C)n(C)c1C	nt	20%[46.1 µM]	-18%[46.1 µM]	nt	30%	2%	5%	?
N#C/C(=C\c1cccnc1)c1ccc(Br)cc1	nt	nt	nt	nt	16%	1%	0%	-42%
COc1ccc(N2CCN(C(c3ccccc3)c3nnnn3Cc3ccc(F)cc3)CC2)cc1 (centres undefined)	7%	?	?	2.8%	-4%	0%	-3%	5%
Cc1c(N)cccc1-n1cnnn1	nt	2%	-8%	nt	3%	-3%	0%	nt
Cc1cccc(CN2CCNC2=O)c1	6%	-6%	23%	-5.2%	-25%	-3%	3%	4%

Sorted by SMILES length (falling): 3 of the compounds above.
Structure	Cruzain inh noDet	MARV entry inh	LASV entry inh	Cruzain Triton	2A StopGo	RE007 growth inh	SARS PLpro yeast	NS1 inh
CC(C)(C)OC(=O)C(Cc1ccc(OC(C)(C)C)cc1)NC(=O)CNC(=O)OCc1ccccc1 (centres undefined)	?	?	?	-10%	0%	-24%	12%	-20%
COc1ccc(CN(Cc2cc3ccc(C)cc3[nH]c2=O)Cc2nnnn2C2CCCC2)cc1	14%	?	?	-14%	nt	1%	-3%	-3%
COc1ccc(N2CCN(C(c3ccccc3)c3nnnn3Cc3ccc(F)cc3)CC2)cc1 (centres undefined)	7%	?	?	2.8%	-4%	0%	-3%	5%

Compound activity (PubChem BioAssay)

Rows were taken by chance; 4.5% or so of the library scored in one or more.
